VDR inh: blocks the human vitamin D receptor | P11473 | VDR-SRC2-3 peptide fluorescence polarization, 2 h | Potency, µM, for inactives: max response, negative = inhibition, usual class: inhibitors | 400,000 tested, 0.93% active; active means well fitted inhibition curve with a large enough effect; inconclusive means small, poorly fitted or top-dose-only effect, or another doubt; inactive means no such curve, though single readings can be large or run the other way; further: series mostly up to about 120 µM
Target sequence (P11473 whole entry, looked up): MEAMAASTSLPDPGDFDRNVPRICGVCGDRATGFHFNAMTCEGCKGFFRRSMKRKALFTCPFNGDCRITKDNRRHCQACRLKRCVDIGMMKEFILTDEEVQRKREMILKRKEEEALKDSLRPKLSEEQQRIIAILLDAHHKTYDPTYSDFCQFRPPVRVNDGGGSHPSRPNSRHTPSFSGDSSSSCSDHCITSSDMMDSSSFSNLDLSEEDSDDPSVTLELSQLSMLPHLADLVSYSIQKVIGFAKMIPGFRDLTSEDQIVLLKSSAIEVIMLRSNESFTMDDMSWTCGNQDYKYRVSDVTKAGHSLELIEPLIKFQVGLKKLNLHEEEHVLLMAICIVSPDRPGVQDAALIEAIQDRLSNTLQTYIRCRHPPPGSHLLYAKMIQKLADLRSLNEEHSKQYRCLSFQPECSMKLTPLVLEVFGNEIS
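Compounds are added to VDR with labelled SRC2-3 coactivator peptide and held 2 h at room temperature. Inhibition of the VDR–peptide interaction is then read as a change in fluorescence polarization.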
* marks the source's active call; other numbers are inactive results; u = inconclusive; & = joins results of further samples. On the % scale 0 is the no-effect control and ±100 the full control effect; potency means the concentration at half of the fitted maximal effect. Some of the compounds tested, so the mix of outcomes need not match the whole.

nr | Molecule | VDR inh
1 | CCCCCCNc1nc(-c2ccc(OC)cc2)c(CCC(=O)O)s1 | -15.1%
2 | COc1nc(C)ccc1-c1noc(-c2cccnc2)n1 | -11.6%
3 | CC(C)CN1CCN(C(=O)CCc2nnc(Cc3c[nH]c4ccccc34)o2)[C@@H](C)C1=O | -6.0%
4 | O=C(CN1C(=O)NC(Cc2ccccc2)C1=O)Nc1ccccc1F (configuration not stated) | 2.5%
5 | CCn1c(=O)cc(OCC(=O)Nc2cc(C)ccn2)c2ccccc21 | -3.0%
6 | Cc1ccc2c(c1)CCCN2C(=O)C1CCCO1 (configuration not stated) | -9.6%
7 | O=C1NCN(c2ccccc2)C12CCN(CCCC(c1ccc(F)cc1)c1ccc(F)cc1)CC2 | -3.5%&-2.2%&42.3%
8 | O=C(CN1C(=O)C2CCCCC2C1=O)Nc1ccccc1N1CCCC1 (configuration not stated) | 20.0%
9 | CCOc1ccc(C2CC(c3ccc(F)cc3)Nc3nc(N)nn32)cc1 (configuration not stated) | -2.1%
10 | CCc1c(C)[nH]c2ccc(OC)cc2c1=S | 2.1%
11 | O=C(N/N=C/CCc1ccccc1)c1ccc(CN2c3cccc4cccc(c34)S2(=O)=O)cc1 | 1.8%
12 | CCn1cc([N+](=O)[O-])c(C(=O)Nc2nc3ccc(OC)cc3s2)n1 | -13.9%
13 | CCCC(c1nnnn1CCc1ccccc1)N1CCN(C2CCCC2)CC1 (configuration not stated) | -6.0%
14 | O=S1(=O)CCC(S(=O)(=O)N2CCCCCC2)C1 (configuration not stated) | -11.0%
15 | COC(=O)[C@H]1C[C@H](C(=O)O)[C@@H](C)C1(C)C | -16.0%
16 | N#Cc1cccc(CN2CCCN(Cc3ccc(F)cc3)S2(=O)=O)c1 | -10.9%
17 | COc1ccc(-c2cc(C(F)(F)F)n3nc(C(=O)Nc4cccc(Cl)c4C)cc3n2)cc1 | 0.0%
18 | CC(=O)N1CCN(C(=S)NC(=O)c2ccc(S(=O)(=O)N3CCOCC3)cc2)CC1 | -19.5%
19 | O=C(Nc1cc(Cl)ccc1N1CCOCC1)c1ccc(F)c(S(=O)(=O)N2CCOCC2)c1 | -1.8%
20 | COc1ccccc1NS(=O)(=O)c1cccc(NS(=O)(=O)c2cc(C(=O)O)ccc2OC)c1 | -4.6%
21 | COc1cc(NC(=O)c2c(F)cccc2F)nc(OC)n1 | -6.6%
22 | CC(=O)N(CCc1cccc(C)c1)Cc1cc2ccc(C)cc2[nH]c1=O | -5.3%
23 | Cc1cn2c(=O)cc(COC(=O)c3cccc(NC(=O)c4ccccc4C)c3)nc2s1 | 4.2%
24 | C=CCN1C(=O)/C(=C2/Sc3ccccc3N2CCCS(=O)(=O)O)SC1=S | 0.9%
25 | Cc1ccc(NC(=O)NCc2ccc3c(c2)OCO3)cc1C | -10.6%
26 | COc1cc2c(cc1OC)CN(C(=O)CN1C(=O)NC3(CCCCC3C)C1=O)CC2 (configuration not stated) | -3.9%
27 | Clc1ccc(OCc2cn3cccnc3n2)c2ncccc12 | -5.3%
28 | O=C(Nc1cccc(C(=O)N2CCOCC2)c1)c1cccnc1 | 4.6%
29 | Cc1cc(C)c2[nH]c(=O)c(CN(Cc3cccnc3)C(=S)NCCCN(C)C)cc2c1 | -3.3%
30 | CN(CC(=O)Nc1ccc(Cl)c(C(F)(F)F)c1)C(=O)C1CCCO1 (configuration not stated) | 14.5%
31 | CCN1CCN(C(=O)c2cnn3c(C(F)F)cc(-c4ccc(C)cc4)nc23)CC1 | 17.8%
32 | Cc1cc(C)nc(N/N=C/c2ccccc2Cl)n1 | -22.9%
33 | Cc1nc2ccccc2cc1C(=O)Nc1ccccc1Cl | -5.4%
34 | CC1CCC(NS(=O)(=O)c2ccc3c(c2)n(C)c(=O)c(=O)n3C)CC1 (configuration not stated) | -10.7%
35 | Cc1ncc(C[n+]2csc(CCOC(=O)C34CC5CC(CC(C5)C3)C4)c2C)c(N)n1 | 9.5%
36 | CCOc1ccccc1NC(=O)c1ccc2nc[nH]c2c1 | 29.5%
37 | CN1C(=O)NC(c2ccc(O)cc2)C(C(=O)c2cccs2)C1(O)C(F)(F)F (configuration not stated) | -1.6%
38 | CCOc1ccccc1CNC(=O)CN1C(=O)c2cccnc2Oc2ccc(Cl)cc21 | 17.6%
39 | C[C@H](CO)N1C[C@H](C)[C@@H](CN(C)Cc2ccc(Oc3ccccc3)cc2)Oc2c(NC(=O)c3ccncc3)cccc2C1=O | 0.3%
40 | COc1cc2nc(CN3CCN(S(=O)(=O)c4ccc(Cl)cc4)CC3)[nH]c(=O)c2cc1OC | -6.1%
41 | COc1cc(NS(=O)(=O)c2cccs2)cc(OC)c1 | -5.7%
42 | COc1ccc(C(=O)[C@]2(C)C=C(c3ccc(OC)cc3)[C@H](C)C2)cc1 | 0.7%
43 | O=C(NCCCN1CCOCC1)C1CCN(S(=O)(=O)c2c(Cl)cccc2Cl)CC1 | -10.1%
44 | N#Cc1ccc(COC(=O)CCc2c[nH]c3ccccc23)cc1 | -1.5%
45 | CC(Sc1nnc(COc2ccc([N+](=O)[O-])cc2)n1C)C(=O)O (configuration not stated) | -11.9%
46 | CCc1ccc(/C=C2\Oc3cc(OC(=O)N4CCOCC4)ccc3C2=O)cc1 | -5.6%
47 | Cc1ccc(C(O)c2ccc(-n3ccnc3)cc2)cc1 (configuration not stated) | -12.2%
48 | Cn1c(=O)c2c(nc(SCC(=O)Nc3ccc(F)cc3)n2Cc2ccc(Cl)cc2)n(C)c1=O | 8.9%

Among those listed so far, 2 have a thiophene ring, fused or not.
nr | Molecule | VDR inh
37 | CN1C(=O)NC(c2ccc(O)cc2)C(C(=O)c2cccs2)C1(O)C(F)(F)F (configuration not stated) | -1.6%
41 | COc1cc(NS(=O)(=O)c2cccs2)cc(OC)c1 | -5.7%

The list goes on:
nr | Molecule | VDR inh
49 | O=C1CCC([N+](=O)[O-])C(c2cc(Br)ccc2F)N1 (configuration not stated) | 9.2%
50 | O=C(Nc1cccc(Cl)c1N1CCOCC1)c1ccc(Br)o1 | -8.3%
51 | O=c1c2c([nH]n1-c1ccccc1)CCSC2 | u
52 | CCOC(=O)C1CCN(Cc2cccc(OC)c2)CC1 | -2.2%
53 | COc1cccc(CN2C(=O)C3(C(C#N)=C(N)OC4=C3C(=O)CCC4)c3ccccc32)c1 (configuration not stated) | 2.6%
54 | O=C(c1cc(COc2cccc(C(F)(F)F)c2)on1)N1CCC(Oc2cccnc2)CC1 | -17.1%
55 | CCC(=O)N1CCc2cc(CNS(=O)(=O)c3ccc(C(C)C)cc3)ccc21 | -17.1%
56 | Cc1ccccc1CNS(=O)(=O)c1c(C(=O)N2CCCC2)c(C)n(C)c1C | -21.0%
57 | O=C(NCC(c1cccnc1)N1CCc2ccccc21)c1ccc(F)cc1 (configuration not stated) | 11.2%
58 | COc1cc(/C=C(\C#N)C(=O)NCC2CCCO2)ccc1OCC(=O)O (configuration not stated) | 9.7%
59 | CC(C)NC(=O)c1ccc(CN2CCc3ccccc3C2)cc1 | -3.8%
60 | O=C(Cc1csc(NC(=O)Nc2cccc(Cl)c2)n1)NCc1cccnc1 | -19.3%
61 | Cc1ccc(C2=NN(C(=S)Nc3ccccc3)C(c3ccco3)C2)cc1 (configuration not stated) | 4.7%
62 | COC(=O)c1ccc(NC(=O)c2ccc3c(c2)OCO3)cc1 | 14.2%
63 | Cc1cc(S(=O)(=O)N2CCOCC2)c(C)s1 | 13.0%
64 | O=C(Nc1ccc(Cl)cc1)C1CCCN(C2=NS(=O)(=O)c3ccccc32)C1 (configuration not stated) | u
65 | O=C1CCC(=O)N1c1cccc(-c2nc3ccccc3o2)c1 | -8.6%
66 | O=C(c1c(Cl)nc2sccn12)N1CCCc2ccccc21 | 1.2%
67 | CCS(=O)(=O)c1ccc(O)c(N2C(=O)C3C4C=CC(C4)C3C2=O)c1 (configuration not stated) | 0.5%
68 | O=C(CC1OC(=O)c2ccccc21)Nc1cccc(S(=O)(=O)N2CCCCCC2)c1 (configuration not stated) | 13.9%
69 | COC(=O)CSC1=C(C#N)C(=O)NC(c2ccccc2)S1 (configuration not stated) | 3.2%
70 | COc1cc(C2c3c([nH]c(=O)[nH]c3=O)Nc3ccc4ccccc4c32)cc(OC)c1OC (configuration not stated) | 3.2%
71 | O=C(NC(=S)Nc1cccc(-c2ccc(CO)o2)c1)c1cccs1 | -18.6%
72 | Cc1ccc(NC(=O)c2ccc(S(=O)(=O)NCc3cccnc3)cc2)cc1C | -21.7%

Laid out differently: results already given
69. COC(=O)CSC1=C(C#N)C(=O)NC(c2ccccc2)S1 (configuration not stated)
  VDR inh: 3.2%
70. COc1cc(C2c3c([nH]c(=O)[nH]c3=O)Nc3ccc4ccccc4c32)cc(OC)c1OC (configuration not stated)
  VDR inh: 3.2%
71. O=C(NC(=S)Nc1cccc(-c2ccc(CO)o2)c1)c1cccs1
  VDR inh: -18.6%

More results follow.
nr | Molecule | VDR inh
73 | CC1(C)Cc2cccc(OCC(=O)Nc3ccccc3F)c2O1 | 0.3%
74 | O=C(CCNC(=O)c1ccc(Br)cc1)Nc1ccc(S(=O)(=O)Nc2ncccn2)cc1 | -18.9%
75 | O=C(Cn1cnc2c(nnn2Cc2ccc(F)cc2)c1=O)Nc1ccc2c(c1)OCCO2 | -4.4%
76 | CN1CCc2c(sc3c2C(=O)NC(c2cccc(OC(=O)c4cccs4)c2)N3)C1 (configuration not stated) | u
77 | OC(CN1CCOCC1)Cn1c2ccccc2c2ccccc21 (configuration not stated) | -7.9%
78 | CC12CCC(C(NC(=S)NN)C1=O)C2(C)C (configuration not stated) | -7.3%
79 | COc1ccc(-c2noc(CCC(=O)N3CCN(c4ccccc4Br)CC3)n2)cc1 | -2.1%
80 | Nc1nc(Cl)cc(Oc2ccc([N+](=O)[O-])cc2)n1 | -19.1%
81 | Cc1ccc(-c2ocnc2C(=O)Nc2nc(C)cs2)cc1 | -7.9%
82 | COc1ccc(C2C(C(=O)NCC3CCCO3)CCC(=O)N2c2ccc3c(c2)OCO3)cc1 (configuration not stated) | 8.6%
83 | CCOc1ccc(Cl)cc1S(=O)(=O)N1CCC(C(=O)NCC2CCCO2)CC1 (configuration not stated) | 3.6%
84 | CCN(CC(=O)NCc1ccc(Cl)cc1)C(=O)c1cc2ccccc2o1 | -17.6%
85 | COc1cccc(C2NC(CC(C)C)(C(=O)O)C3C(=O)N(Cc4ccccc4)C(=O)C23)c1O (configuration not stated) | 3.3%
86 | O=C(c1cc(COc2ccc(F)cc2Cl)on1)N1CCN(C2CCCCC2)C(=O)C1 | -9.2%
87 | CC(CN1CCCCC1)OC(=O)c1ccccc1Cl (configuration not stated) | 5.7%
88 | FC(F)(F)c1cccc(CNC2CCN(Cc3ccccc3)CC2)c1 | -6.9%
89 | CC1CCN(CCNC(=O)C2CCCN(c3ncnc4c3nc3n4CCCCC3)C2)CC1 (configuration not stated) | 5.8%
90 | O=C(COc1ccccc1)NC1CCN(Cc2ccccc2)CC1 | 18.2%
91 | COc1ccc(CCN2C(=O)c3[nH]nc(-c4ccccc4O)c3C2c2cccc(OC)c2)cc1 (configuration not stated) | 7.0%
92 | COc1ccc(CNC(=O)CN2C(=O)C3C4C=CC(C4)C3C2=O)cc1 (configuration not stated) | 7.9%
93 | Cc1[nH]n(-c2ccccc2)c(=O)c1S(=O)(=O)c1ccccc1 | -19.8%
94 | Cn1nnc2c(NCc3ccccc3Cl)ncnc21 | 6.3%
95 | CCN(C[C@H]1N[C@@](CC)(C(=O)OC)[C@H]2C(=O)N(Cc3ccccc3)C(=O)[C@@H]12)C(=O)c1ccc(F)cc1 | -9.8%
96 | COc1ccc(C2=C(C#N)C(=O)OC2)cc1 | -2.1%
97 | COc1ccc(CNC(=O)C2CCN(S(=O)(=O)c3ccc4c(c3)CCCN4C(C)=O)CC2)cc1 | 5.1%
98 | COc1ccc(-n2c(SCC(N)=O)nnc2-c2cccnc2)cc1 | -9.4%
99 | CCOC(=O)N1CCC(N2CCN(S(=O)(=O)c3ccc([N+](=O)[O-])cc3)CC2)CC1 | 16.0%
100 | COC(=O)[C@@]12CCCCN1[C@H](c1ccc(-c3ccc(F)cc3)cc1)[C@@H]1C(=O)N(C)C(=O)[C@@H]12 | -8.3%
101 | CCCCC(NC(=O)c1cccc(Br)c1)C(=O)O (configuration not stated) | -7.6%
102 | O=C(Oc1ccccc1)N1CCC2(CCCN(c3ccncc3)C2)CC1 | 4.5%
103 | Cc1ccc(N(C(=O)CCC(=O)Nc2cc(C)on2)C(C(=O)NC2CCCC2)c2ccncc2)cc1 (configuration not stated) | 4.3%
104 | N#Cc1nc(COc2ccc(F)cc2)oc1N1CCCC1 | 1.6%
105 | COC(=O)c1cc2oc(C)cc2n1CC(=O)N(C)c1ccccc1 | 7.1%
106 | CCC1Oc2ccccc2N(CC(=O)NC2CCCCC2)C1=O (configuration not stated) | 7.8%
107 | O=C(/C=C/c1ccc(OCCCF)cc1)N1CCN(Cc2ccccc2)CC1 | 0.0%
108 | Cc1cc(NS(=O)(=O)c2cc(Cl)sc2Cl)no1 | -17.0%
109 | CC1CN(C(c2ccco2)c2sc3ncnn3c2O)CC(C)O1 (configuration not stated) | -21.1%
110 | COc1ccccc1-c1nnc(C2CCN(C(=O)c3ccccc3C)CC2)o1 | -5.4%
111 | Cc1cccc(NC(=O)CSc2nnc(CNC(=O)c3cccs3)o2)c1C | 3.6%
112 | CC(Oc1ccccc1)C(=O)NCc1cccnc1 (configuration not stated) | 3.3%
113 | Cc1cccc(NS(=O)(=O)c2cccc3nonc23)c1 | -16.8%
114 | Cc1ccc(S(=O)(=O)NNC(=O)c2csnn2)cc1 | 2.8%
115 | O=C(NCCO)Nc1ccc(Cl)cc1 | 24.3%
116 | CCOc1ccc(C(=O)NCC(c2ccc(Cl)cc2)N2CCCCC2)cc1 (configuration not stated) | 5.5%
117 | CCCCn1c(N)c(N(CCOC)C(=O)c2nn(CC)c(=O)c3ccccc23)c(=O)[nH]c1=O | -0.1%
118 | O=C(Nc1nnc(SCc2cc(=O)n3cc(Cl)ccc3n2)s1)c1cccc(F)c1 | 9.8%
